PrP UTR inh – inhibition of PrP 5' UTR reporter expression. cell-based PrP 5' UTR mRNA reporter, plate reader. inhibition, % (test concentration not listed). hit rate 0.35% among 340,000. AID 488862;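 active means every replicate at 50% or more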;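 further: 0 = median of the neutral control wells; tested in H4 reporter cells; numbers are from one replicate; inactives centre near -14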
RN4220 kill – kills Staphylococcus aureus RN4220 | inhibition, % (concentration not given with the values) | hit rate 0.33% among 330,000 | S. aureus RN4220 growth, OD600, 16 h;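 active means z-score of -3 or lower and OD600 up to 0.18 on both plates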;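 further: plate controls were untreated cells for no effect and reference antibiotic for full effect; stock transfer was 100 nL into about 80 µL; one replicate is shown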
Sa ugtP lethal – kills S. aureus RN4220 lacking UgtP; S. aureus RN4220 ugtP deletion, OD600 growth, 16 h; some inactives read as strong as hits; growth inhibition, % (concentration not given with the values); AID 1259309; hit rate 0.54% among 330,000;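 active means z-score under -3 and OD600 up to 0.15 on both plates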;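 further: plate controls were untreated wells for no effect and antibiotic for full effect; wells of about 80 µL received 100 nL stock; the first replicate is given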
Autofluor counter – compound fluorescence in toxin protease inhibitor counterscreen | compound autofluorescence counterscreen, microsphere flow cytometry; hits give high values | fluorescence intensity (concentration not given with the values) | hit rate 3.1% among 360,000;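 active means at least 3 SD above the mean of all compounds, about 16000 in these data; inconclusive means too few beads counted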;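 further: 100 nL of 1 mM stock went into each well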
BJeLR viability – BJeLR cell viability loss; BJeLR (HRASV12) viability, CellTiter-Glo ATP luminescence, 48 h; reference of the scale not given here; inhibition, % (concentration not given with the values); hit rate 0.17% among 300,000;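 active means replicate mean above 50%; inconclusive means above 50% but judged a plate artefact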;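 further: 50 nL library stock added to about 25 µL; numbers are from one replicate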
Mtb hypoxia rep – Mtb hypoxia fluorescent reporter inhibition; fluorescence inhibition, % (test concentration not listed); M. tuberculosis hypoxia-regulated fluorescent reporter, fluorescence; hit rate 0.1% among 300,000;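 active means 35 to 45% if threefold the growth effect, above 45% if 1.5-fold the growth effect; inactive means the rest, general growth blockers included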;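 further: wells of about 50 µL received 100 nL stock; 0% = vehicle wells and 100% = reference inhibitor wells; whole bacteria with a GFP reporter of the hypoxia response; strong numbers were not always called active; many hits fall short of the cut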
Mtb hypoxia rep growth – second read-out of Mtb hypoxia rep, no call of its own (marks repeat the call); growth inhibition, %; measured here: M. tuberculosis growth (absorbance);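 0% = vehicle and 100% = reference antibiotic; read after six days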
* marks the source's active call; other numbers are inactive results.

Results for COc1ccc(/C=C2\SC(=O)N(CCC(=O)N3CCCCC3CCO)C2=O)cc1 (configuration not stated) ?
PrP UTR inh: -8; RN4220 kill: 4.4; Sa ugtP lethal: -10; Autofluor counter: 5031; BJeLR viability: 11; Mtb hypoxia rep: 3; Mtb hypoxia rep growth: 7

What do the screens show for `CNC(=S)Nc1ccc(C23CC4CC(CC(C4)C2)C3)cc1`?
PrP UTR inh: -21; RN4220 kill: -5.9; Sa ugtP lethal: 6; Autofluor counter: 2562; BJeLR viability: -6; Mtb hypoxia rep: 17; Mtb hypoxia rep growth: 32

What do the screens show for `Cc1ccc(C(=O)/C=C/c2ccco2)c(O)c1`?
PrP UTR inh: -31; RN4220 kill: 12; Sa ugtP lethal: -1; Autofluor counter: 2208; BJeLR viability: -15; Mtb hypoxia rep: 11; Mtb hypoxia rep growth: 7

How did Cc1ccc(-c2nn(-c3ccc(F)cc3)cc2C(=O)N(C)CC(=O)Nc2ccc(N3CCOCC3)cc2)cc1 do in these assays?
PrP UTR inh: -10; RN4220 kill: 1.5; Sa ugtP lethal: 2; Autofluor counter: 5059; BJeLR viability: 8; Mtb hypoxia rep: 0; Mtb hypoxia rep growth: 8

What do the screens show for `CCCc1[nH]nc2c1C(c1ccc(OC(=O)N3CCOCC3)c(OC)c1)C(C#N)=C(N)O2` (configuration not stated)?
PrP UTR inh: -14; RN4220 kill: 5.8; Sa ugtP lethal: -3; Autofluor counter: 9157; BJeLR viability: -4; Mtb hypoxia rep: 7; Mtb hypoxia rep growth: -2

Results for CCc1cc2c3c(c1)C(C)CC(C)(C)N3C(=O)C2=O (configuration not stated) ?
PrP UTR inh: -11; RN4220 kill: 10; Sa ugtP lethal: -1; Autofluor counter: 10295; BJeLR viability: -6; Mtb hypoxia rep: 7; Mtb hypoxia rep growth: 1

What do the screens show for `N#CCC(=O)NN=Cc1cccc(OC/C=C/c2ccccc2)c1`?
RN4220 kill: 2.8; Sa ugtP lethal: 1; Mtb hypoxia rep: -7; Mtb hypoxia rep growth: 0

Results for O=C(NCCCN1CCC(Cc2ccccc2)CC1)C1CC(=O)N(C2CCCC2)C1 (configuration not stated) ?
PrP UTR inh: -18; RN4220 kill: -0.3; Sa ugtP lethal: 14; Autofluor counter: 6174; BJeLR viability: 9; Mtb hypoxia rep: 4; Mtb hypoxia rep growth: 6

How did O=C(Nc1ccc(Cl)cc1)c1ccc2c(c1)OCO2 do in these assays?
PrP UTR inh: -131; RN4220 kill: 2.7; Sa ugtP lethal: 3; Autofluor counter: 4714; BJeLR viability: -5

How did CCOC(=O)C1(CCc2ccccc2)CCN(Cc2cc(OC)c(OC)cc2OC)CC1 do in these assays?
PrP UTR inh: -24; RN4220 kill: 0.1; Sa ugtP lethal: 8; Autofluor counter: 4036; BJeLR viability: 3; Mtb hypoxia rep: 8; Mtb hypoxia rep growth: 9

What do the screens show for `CC(C)CN(CC(C)C)CC(O)COc1ccccc1Br` (configuration not stated)?
PrP UTR inh: -31; RN4220 kill: 21; Sa ugtP lethal: 16; Autofluor counter: 2544; BJeLR viability: -5; Mtb hypoxia rep: 16; Mtb hypoxia rep growth: 8

Results for CC1(C(=O)N2CCN(c3ccc([N+](=O)[O-])cc3)CC2)CC1(Cl)Cl (configuration not stated) ?
PrP UTR inh: 5; RN4220 kill: 3.9; Sa ugtP lethal: 8; Autofluor counter: 3458; BJeLR viability: -6; Mtb hypoxia rep: 1; Mtb hypoxia rep growth: 5

Results for Cc1ccc(OCC(=O)NC(=S)Nc2ccc(Br)c(C)n2)cc1 ?
PrP UTR inh: 2; RN4220 kill: 1.6; Sa ugtP lethal: 2; Autofluor counter: 9028; BJeLR viability: -1; Mtb hypoxia rep: 1; Mtb hypoxia rep growth: 1

How did O=C(CSc1nnc(CN2CCCC2)n1-c1ccc(F)cc1)c1ccc2c(c1)OCO2 do in these assays?
PrP UTR inh: -21; RN4220 kill: -0.1; Sa ugtP lethal: -5; Autofluor counter: 4646; Mtb hypoxia rep: -3; Mtb hypoxia rep growth: -5

How did COc1cccc(CNC(=O)CCC2CCCN(C(=O)C3=CC(=O)CC(C)(C)O3)C2)c1 (configuration not stated) do in these assays?
PrP UTR inh: -1; RN4220 kill: 1.6; Sa ugtP lethal: 1; Autofluor counter: 3539; BJeLR viability: -10; Mtb hypoxia rep: -10; Mtb hypoxia rep growth: 5

Results for Cn1c(C2=C(O)CN(Cc3ccccc3)C2=N)nc2ccccc21 ?
PrP UTR inh: -14; RN4220 kill: -0.1; Sa ugtP lethal: 7; Autofluor counter: 3994; BJeLR viability: -1; Mtb hypoxia rep: 5; Mtb hypoxia rep growth: 5

Results for O=C(NCC(=O)N(c1cccnc1)C(C(=O)NC1CCCC1)c1ccccc1F)c1ccco1 (configuration not stated) ?
PrP UTR inh: -26; RN4220 kill: -1.9; Sa ugtP lethal: 17; Autofluor counter: 3871; BJeLR viability: -6; Mtb hypoxia rep: -2; Mtb hypoxia rep growth: 5

Results for Cc1ccc2c(CN3CCCCC3C)cc(=O)oc2c1C (configuration not stated) ?
PrP UTR inh: -14; RN4220 kill: 0.5; Sa ugtP lethal: 6; Autofluor counter: 4285; BJeLR viability: 16; Mtb hypoxia rep: 3; Mtb hypoxia rep growth: -7

How did O=S(=O)(c1ccc(Cl)c(NC(=S)Nc2ccccc2N2CCOCC2)c1)N1CCOCC1 do in these assays?
PrP UTR inh: -36; RN4220 kill: 0.7; Sa ugtP lethal: -2; Autofluor counter: 2374; BJeLR viability: -1; Mtb hypoxia rep: 9; Mtb hypoxia rep growth: 13

How did CSc1ncccc1C(=O)Nc1ncc(C)s1 do in these assays?
PrP UTR inh: -20; RN4220 kill: 3.0; Sa ugtP lethal: 14; Autofluor counter: 3659; BJeLR viability: 4; Mtb hypoxia rep: 1; Mtb hypoxia rep growth: -1

Results for O=C(N/N=C/c1cccc(O)c1)c1ccc(COc2ccc3c(c2)CCC3)o1 ?
PrP UTR inh: -103; Autofluor counter: 2540; BJeLR viability: -6

How did N#Cc1cc2c(=O)n3ccccc3nc2n(CCCN2CCOCC2)c1=O do in these assays?
PrP UTR inh: -25; RN4220 kill: 4.7; Sa ugtP lethal: 3; Autofluor counter: 9082; BJeLR viability: 1; Mtb hypoxia rep: 0; Mtb hypoxia rep growth: 11

How did CC1=NN=C(c2ccccc2)C(c2c[nH]c3ccccc23)N1O (configuration not stated) do in these assays?
PrP UTR inh: -4; RN4220 kill: 4.8; Sa ugtP lethal: 0; Autofluor counter: 3664; BJeLR viability: 3; Mtb hypoxia rep: 13; Mtb hypoxia rep growth: 11

How did Cc1noc(C)c1S(=O)(=O)Nc1ccc2c(c1)C(=O)N([C@H](C)CO)C[C@H](C)[C@@H](CN(C)C(=O)Nc1ccc3c(c1)OCO3)O2 do in these assays?
PrP UTR inh: 14; RN4220 kill: 4.7; Sa ugtP lethal: 10; Autofluor counter: 2889; Mtb hypoxia rep: 2; Mtb hypoxia rep growth: 6

Results for CCN(CC)S(=O)(=O)c1ccc(N2CCOCC2)c(NC(=O)c2cc(Cl)c3c(c2)OCO3)c1 ?
PrP UTR inh: 1; RN4220 kill: 15; Sa ugtP lethal: -11; Autofluor counter: inconclusive; Mtb hypoxia rep: 0; Mtb hypoxia rep growth: 12

What do the screens show for `CC1CCCC(C)N1N=Cc1ccc(O)cc1` (configuration not stated)?
RN4220 kill: -1.0; Sa ugtP lethal: 0; Mtb hypoxia rep: 2; Mtb hypoxia rep growth: 0

How did CCOc1cc(C(=O)Nc2cnccn2)cc(OCC)c1OCC do in these assays?
PrP UTR inh: -38; RN4220 kill: 2.5; Sa ugtP lethal: 4; Autofluor counter: 20443*; BJeLR viability: 8; Mtb hypoxia rep: 7; Mtb hypoxia rep growth: 7

Results for CNC(=O)C(=NO)c1ccccc1 ?
RN4220 kill: 0.9; Sa ugtP lethal: -1; Mtb hypoxia rep: 9; Mtb hypoxia rep growth: 3

Results for COc1ccc(C[C@@H]2CN3C(=NC[C@@H]3C)N2C[C@H](C)NC(=O)c2ccc(C)c(Br)c2)cc1 ?
PrP UTR inh: -27; Autofluor counter: 3710; BJeLR viability: 5

Results for Cc1nn(C)c(C(=O)NN=Cc2cccnc2)c1Cl ?
RN4220 kill: 1.9; Sa ugtP lethal: 3; Mtb hypoxia rep: 6; Mtb hypoxia rep growth: 3

How did COC(=O)C1CCN(C(=O)CN2C(=O)NC(CCc3ccccc3)C2=O)CC1 (configuration not stated) do in these assays?
PrP UTR inh: -2; RN4220 kill: 2.5; Sa ugtP lethal: 2; Autofluor counter: 5355; BJeLR viability: -2

What do the screens show for `CON=Cc1ccc(N2CCOCC2)c([N+](=O)[O-])c1`?
RN4220 kill: 6.0; Sa ugtP lethal: 6; Mtb hypoxia rep: 7; Mtb hypoxia rep growth: -4

How did Cc1ccc(NC(=O)NC(=O)N(c2ccccc2)S(C)(=O)=O)cc1 do in these assays?
PrP UTR inh: -54; RN4220 kill: -0.3; Sa ugtP lethal: 2; Autofluor counter: 4052; BJeLR viability: 1; Mtb hypoxia rep: 7; Mtb hypoxia rep growth: 11

Results for CC(=O)c1cn(C2OC(CO)C3OC(C)(C)OC32)c(=O)n(C)c1=O (configuration not stated) ?
RN4220 kill: 2.2; Sa ugtP lethal: 9; Autofluor counter: 5915; BJeLR viability: -10; Mtb hypoxia rep: 5; Mtb hypoxia rep growth: -7

How did Cc1cc(C(=O)NNC(=O)c2ccc(C)c([N+](=O)[O-])c2)c(C)o1 do in these assays?
PrP UTR inh: -11; RN4220 kill: 1.5; Sa ugtP lethal: 0; Mtb hypoxia rep: -5; Mtb hypoxia rep growth: -16

How did COC(=O)CC1=C(C(=O)OC)C(c2cc(OC)c(OC)cc2OC)C(C#N)=C(N)O1 (configuration not stated) do in these assays?
PrP UTR inh: -17; RN4220 kill: 2.2; Sa ugtP lethal: 2; Autofluor counter: 10927; BJeLR viability: -4; Mtb hypoxia rep: 5; Mtb hypoxia rep growth: 3

Results for CCOC(=O)c1c(C)n(C)c2ccc(OCC(O)Cn3nc(C)cc3C)cc12 (configuration not stated) ?
PrP UTR inh: -10; RN4220 kill: 6.6; Sa ugtP lethal: 2; Autofluor counter: 16244*; BJeLR viability: 2; Mtb hypoxia rep: 14; Mtb hypoxia rep growth: 6

How did C/C(=N/NS(=O)(=O)c1ccc(C)cc1)c1cccc(NC(=O)c2cccc(Cl)c2)c1 do in these assays?
PrP UTR inh: -35; Autofluor counter: 4852; BJeLR viability: 1

What do the screens show for `COc1ccccc1OCC(=O)Nn1c(=S)[nH]c2ncccc2c1=O`?
PrP UTR inh: -9; RN4220 kill: 9.8; Sa ugtP lethal: -2; Autofluor counter: 8814; BJeLR viability: -5; Mtb hypoxia rep: 2; Mtb hypoxia rep growth: 4

Results for CCOc1ccc(CN(C)C(=O)c2cc(S(=O)(=O)N3CCCC3)ccc2C)cc1 ?
PrP UTR inh: -14; RN4220 kill: -0.3; Sa ugtP lethal: 4; Autofluor counter: 8831; Mtb hypoxia rep: 2; Mtb hypoxia rep growth: 4

What do the screens show for `Cc1ccc(S(=O)(=O)N/N=C\c2cn(CC(N)=O)c3ccccc23)cc1`?
PrP UTR inh: -32; Autofluor counter: inconclusive; BJeLR viability: -6

What do the screens show for `Cc1cc(C)n(-c2ccc(C(=O)NCC(c3ccco3)N3CCCC3)cc2)n1` (configuration not stated)?
PrP UTR inh: -9; RN4220 kill: 2.4; Sa ugtP lethal: 3; Autofluor counter: 4036; Mtb hypoxia rep: 8; Mtb hypoxia rep growth: 13

Screening data (PubChem BioAssay)
